Assay outcomes: PubChem, several laboratories
HIV Env fusion: inhibitors of HIV-1 Env-driven cell-cell fusion, primary screen, HeLa-JRFL effector, CEM21 target cells, luciferase; inhibition, % at 12.3 µM; 360,000 tested, 1.1% active;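 active = mean replicate inhibition score of at least 50 and every replicate individually at or above 50; inconclusive = only one of the two criteria met; inactive = mean below 50 and not all replicates reaching 50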;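 note: 0% = plate neutral controls and 100% = maraviroc near 300 nM; one replicate is shown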
Rce1 inhib: yeast Rce1p protease inhibitors, primary screen, biochemical, fluorescence, cell-free homogeneous. calls only. CAAX prenyl protease 2 (Saccharomyces cerevisiae (strain ATCC 204508 / S288c)), Q03530. 290,000 tested, 0.27% active. yeast membranes, quenched prenylated peptide cleavage fluorescence;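 active = fall in fluorescence gain of 50% or more versus controls, with final raw signal at or below 3038400; inconclusive = same 50% fall but final raw signal above 3038400; inactive = fall in fluorescence gain under 50%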;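 note: plate controls were neutral control wells for no effect and wells lacking membranes for full effect; tested at 10 µM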
PABP FP inh: PABP poly(A) RNA binding inhibitors, primary screen, biochemical, fluorescence polarization, uHTS. inhibition, % at 35 µM. 290,000 tested, 1% active. AID 2014, 2009;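 active = 50% or more with normal probe brightness, or confirmed in later tests; inconclusive = above 50% with abnormal brightness, or retests that disagree; inactive = below 50% or failed in later tests; about a fifth of its hits are not listed in these tables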;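 note: calls also rest on retests at 20 µM and on dose response follow-up; controls were probe without protein and protein plus probe with vehicle; some compounds called inactive have numbers as strong as hits; many hits fall short of the cut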
Target sequence (P11940 whole entry, looked up): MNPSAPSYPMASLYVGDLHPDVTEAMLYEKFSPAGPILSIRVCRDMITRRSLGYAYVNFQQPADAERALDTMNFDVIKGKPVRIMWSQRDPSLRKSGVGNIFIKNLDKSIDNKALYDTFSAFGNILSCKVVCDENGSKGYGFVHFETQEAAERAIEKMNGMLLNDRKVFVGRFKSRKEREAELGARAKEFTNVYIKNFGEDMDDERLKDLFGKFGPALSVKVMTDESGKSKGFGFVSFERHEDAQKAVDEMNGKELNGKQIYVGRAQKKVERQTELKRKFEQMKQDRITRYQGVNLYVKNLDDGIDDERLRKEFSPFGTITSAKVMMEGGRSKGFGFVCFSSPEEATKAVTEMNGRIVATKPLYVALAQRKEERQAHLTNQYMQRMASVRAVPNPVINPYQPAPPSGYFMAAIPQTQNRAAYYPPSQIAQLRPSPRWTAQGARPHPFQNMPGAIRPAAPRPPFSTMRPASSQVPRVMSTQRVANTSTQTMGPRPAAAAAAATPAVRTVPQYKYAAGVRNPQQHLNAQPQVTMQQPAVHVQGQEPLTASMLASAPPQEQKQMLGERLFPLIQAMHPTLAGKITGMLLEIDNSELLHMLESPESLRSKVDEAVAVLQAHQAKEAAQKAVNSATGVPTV
CSC inhib: cancer stem cell viability inhibitors, primary screen, luminescence | cancer stem cell-like cells viability | inhibition, % at 7.5 µM | 300,000 tested, 1.1% active | AID 2717, 2010;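 active = mean at 75% or more and at least half the replicates too; inconclusive = mean and replicates disagree; tested in HMLE shEcad cells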;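 note: 0% = median of negative and 100% = median of positive control wells; the first replicate is given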
eIF4H FP inh: human eIF4H binding inhibitors, primary screen, translation initiation inhibitor project, biochemical, uHTS, fluorescence polarization. Eukaryotic translation initiation factor 4H (Homo sapiens), Q15056. eIF4H fluorescence polarization binding assay. inhibition, % at 35 µM. 290,000 tested, 0.94% active;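 active = 50% or more with normal probe brightness, or confirmed in later tests; inconclusive = above 50% with abnormal brightness, or retests that disagree; inactive = below 50% or failed in later tests; about a fifth of its hits are not listed in these tables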;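 note: calls also rest on retests at 20 µM and on dose response follow-up; 0% = protein and probe with vehicle and 100% = probe without protein; strong numbers were not always called active; many hits fall short of the cut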
MT1-MMP act inh: blockers of MT1-MMP proenzyme processing, primary screen, HT1080 RFP-PRO-GFP cells, GFP/RFP fluorescence; Matrix metalloproteinase-14 (Homo sapiens), P50281; GFP/RFP ratio fluorescence, overnight; percent of plate control window, DMSO zero; GFP/RFP ratio change, % at 20 µM; 360,000 tested, 0.061% active; AID 651647, 2012;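 active = GFP/RFP ratio change of at least 30% with cell ATP level not reduced by more than half and red fluorescence within 50% of control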; note: strong numbers were not always called active
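Material: RFP-PRO-GFP reporter HT1080 cells. Dosing: single-point 20 µM compound, 1% DMSO. Controls: DMSO and RFP-L50D-GFP cell wells. Timing: cells overnight before dosing, compound overnight, 37 °C, 5% CO2. Measure: GFP/RFP fluorescence ratio.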
UUG fidelity: modulators of yeast start codon fidelity, primary screen, whole organism, S. cerevisiae, single point, plate reader. activity score, % at 18.7 µM. S. cerevisiae UUG-firefly luciferase reporter, luminescence/redox ratio. 350,000 tested, 0.13% active;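 active = replicate mean at a twofold rise or more, about +100% in these data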;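 note: firefly luciferase made from a UUG start codon reports start codon fidelity; reporter light over untreated wells divided by growth signal over untreated wells; some hits fall short of that in this replicate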
MT1-MMP act inh RFP: also measured in MT1-MMP act inh; calls as there; RFP signal change, %; measured here: RFP expression control read;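 0 = vehicle wells; hits needed this value within 50% of zero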
The depositor's hits bear a star; i = inactive; ? = inconclusive; · = not tested or not shown; & = joins results of further samples. This is a random part of the collection. Share with any hit: about 2.9%.

The line under a structure holds: HIV Env fusion | Rce1 inhib | PABP FP inh | CSC inhib | eIF4H FP inh | MT1-MMP act inh | MT1-MMP act inh RFP | UUG fidelity
- COC(=O)c1nn(-c2ccc3c(c2)CCN3C(C)=O)cc1O
 : 73* | ? | 12 | 30 | -5 | 0 | 6 | -88
- O=C(N/N=C/c1ccccc1[N+](=O)[O-])c1ccc(CN2CCOCC2)cc1
 : -2 | i | -4 | -17 | -11 | 4 | 1 | ·
- CCN(CCO)c1ncnc2c1sc1nc(CC(C)C)c3c(c12)CC(C)(C)OC3
 : -71 | i | -9 | 61 | 6 | · | · | -11
- CCOC(=O)c1c(-c2ccc(C)cc2)csc1NC(=O)c1cccc(N2C(=O)CCC2=O)c1
 : · | i | 7 | -10 | -4 | -2 | -1 | -2
- O=S1(=O)CC(N2CCN(CC3CC3)CC2)CN1C1CCCCC1 (stereo unspecified)
 : 3 | · | · | · | · | 2 | 4 | -14
- COc1ccc(OC)c(C(=O)COC(=O)c2ccc(C)o2)c1
 : · | i | -18 | 10 | 8 | 0 | 9 | 4
- O=C(O)C1CCN1C1CCCCC1 (stereo unspecified)
 : · | i | -11 | 0 | -4 | -1 | 1 | 14
- CSC[C@H]1CN(c2ccc(Br)cc2)C(=O)[C@@H]1CC(=O)Nc1ccccc1
 : -2 | · | · | · | · | 1 | 0 | -5
- CCc1ccc(NC(=O)c2cc3c(C)nc4ccccc4c3o2)cc1
 : 10 | i | -18 | ? | -10 | 4 | 0 | ·
- COc1ccc(NC(=O)C2C3C=CC(O3)C2C(=O)NCc2cccnc2)cc1 (stereo unspecified)
 : -88 | i | -6 | -2 | -6 | 1 | 4 | -14
- O=C(COC(=O)c1ccc(Sc2ccccc2)c([N+](=O)[O-])c1)NC1CCCc2ccccc21 (stereo unspecified)
 : · | i | 0 | -1 | 5 | -2 | 1 | -12
- CCNc1nc(N)c(C(=C(C#N)C#N)c2ccccc2)s1
 : -87 | i | 4 | 36 | 3 | 2 | -8 | -1
- Nc1ccc(S(=O)(=O)Nc2nccc(/C=C/c3cccc(Br)c3)n2)cc1
 : -3 | i | 3 | 19 | 7 | -8 | -5 | -6
- CCc1cc2c(cc3c(=O)n(CC(=O)N4CCN(c5ccccn5)CC4)nc(CC)n32)s1
 : · | i | -3 | · | -2 | 3 | -2 | -11
- O=C(Nc1ccc(-c2nc3ccccc3s2)c(O)c1)C1=COCCO1
 : -108 | i | 4 | 3 | -4 | 2 | -2 | ·
- O=C(Nc1ccc(Cl)c(S(=O)(=O)N2CCOCC2)c1)c1ccc(Cl)nc1
 : -100 | · | · | · | · | -2 | -19 | -17
- COc1cccc(N(CC(=O)NC2CCCCC2)C(=O)CCC(=O)Nc2nc(C)cs2)c1
 : 6 | i | 0 | -3 | -1 | 4 | 4 | 8
- OC1(c2cccc(C(F)(F)F)c2)CCN(Cc2nc(-c3cnccn3)no2)CC1
 : -5 | i | 0 | 4 | -8 | 1 | 2 | -12
- Cc1cc(-c2nn(-c3ccccc3F)cc2CN2CCN(c3ccccn3)CC2)c(C)s1
 : 19 | i | -10 | 20 | -6 | -4 | -11 | 26
- COc1ccc2nc(SCC(=O)NCc3ccc4c(c3)OCO4)[nH]c2c1
 : -20 | i | -7 | -2 | 2 | 3 | 3 | ·
- CCOc1ccccc1NC(=S)NCCc1ccc(F)cc1
 : -9 | i | -7 | 1 | 1 | -2 | -2 | ·
- O=c1[nH]c2ccccc2c(O)c1-c1cc2ccccc2oc1=O
 : -9 | i | -4 | -2 | 0 | · | · | ·
- COc1ccccc1N1CCN(CC(=O)c2ccc3ccn(C(C)=O)c3c2)CC1
 : · | i | 5 | · | 4 | 6 | 11 | -18
- COc1cc(S(=O)(=O)N2CCCC2)c(C)cc1C
 : 7 | i | 11 | -8 | -4 | 2 | 1 | -12
- O=c1[nH]cnc(O)c1C(c1ccc(Br)cc1)c1c(O)nc[nH]c1=O
 : 5 | i | 16 | -2 | -5 | -7 | -2 | -17
- COCCN(C(=O)c1ccc(-c2ccc(Cl)cc2)o1)c1c(N)n(Cc2ccccc2)c(=O)[nH]c1=O
 : -3 | i | · | -1 | · | -3 | 2 | ·
- Cc1ccc(NC(=O)c2nc[nH]c2C(=O)N2CCN(C(=O)OC(C)(C)C)CC2)cc1
 : 18 | · | · | 15 | · | 0 | 2 | 9
- CC(C)c1ccccc1NC(=O)COC(=O)Cc1cccc(C(F)(F)F)c1
 : 2 | i | -6 | 22 | 0 | 2 | -1 | ·
- O=C(O)CCC(NC(=S)Nc1ccccc1)C(=O)O (stereo unspecified)
 : 10 | i | 6 | 13 | -16 | 0 | 2 | -27
- COc1cccc(CNS(=O)(=O)c2cc(Br)ccc2Br)c1
 : 9 | · | · | · | · | 2 | -2 | 25

Later entries
The line under a structure holds: HIV Env fusion | Rce1 inhib | PABP FP inh | CSC inhib | eIF4H FP inh | MT1-MMP act inh | MT1-MMP act inh RFP | UUG fidelity
- CCOC(=O)c1c(NC(=O)CSc2nnnn2C)sc(C)c1C
 : · | i | 4 | -10 | 0 | -6 | -4 | 1
- CC(C)(C)NC(=O)CCN(/N=C/c1ccncc1)C1=NS(=O)(=O)c2ccccc21
 : 7 | i | 20 | 16 | -2 | -4 | -1 | -7
- S=C(NCCN1CCOCC1)N/N=C/c1cccs1
 : -8 | i | 1 | -8 | -13 | 0 | 1 | ·
- Cc1ccc(-n2sc3ccccc3c2=O)cc1S(=O)(=O)N1CCCCC1
 : 28 | i | 5 | 0 | -3 | 8 | -24 | 10
- O=C(CCCn1c(=S)[nH]c2ccsc2c1=O)Nc1ccc(F)cc1
 : 13 | · | · | · | · | 6 | 2 | 0
- COc1ccc(-c2cc(C(=O)Nc3ccc(S(N)(=O)=O)cc3)c3ccccc3n2)cc1OC
 : 5 | i | 2 | -12 | -7 | -1 | 1 | 2
- CCCOc1ccc(C2C(=O)N(C3CCCCCC3)CC(=O)N2Cc2ccco2)cc1OC (stereo unspecified)
 : 58* | i | 12 | · | 1 | -6 | -10 | 6
- COc1ccc(NC(=O)CN(C)C(=O)c2c(C)nn(Cc3ccc(C)cc3)c2Cl)cc1
 : · | · | · | -5 | · | -3 | 1 | 9
- Brc1ccc(COc2ncnc3ccccc23)cc1
 : -5 | i | -3 | -1 | -7 | -4 | -1 | ·
- Cn1cnnc1SCC(=O)Nc1cccc(S(=O)(=O)N2CCOCC2)c1
 : -1 | i | 13 | 9 | -5 | -1 | 5 | -10
- COc1ccccc1C(CC(=O)Nc1ccccc1C)c1ccc(OC(C)C)cc1 (stereo unspecified)
 : 3 | i | 11 | 2 | -7 | 1 | 5 | 1
- O=C(OCC#CCSc1nnc(-c2ccncc2)o1)c1cccs1
 : · | i | 9 | · | 0 | 0 | -3 | -9
- COc1cc(OC)cc(C(=O)OCC(=O)NCCCc2ccccc2)c1
 : 13 | i | 2 | -4 | 10 | 5 | 5 | -9
- CCC(=O)N(C)C[C@H]1Oc2cc(Br)ccc2S(=O)(=O)N([C@@H](C)CO)C[C@H]1C
 : 10 | · | · | · | · | -2 | 3 | -7&5&5
- CCOc1ccccc1NC(=O)CSc1nnc2ccc(-c3ccccn3)nn12
 : · | i | · | 7 | · | -2 | -2 | -12
- NC(=O)C1(Nc2ccc(Cl)cc2)CCCC1
 : 37 | · | · | · | · | 1 | 5 | -8
- CC(NC(=O)c1ccccc1NC(=O)CN1CCN(c2ccccc2O)CC1)c1ccccc1 (stereo unspecified)
 : 5 | · | · | · | · | -2 | -2 | 1
- CS(=O)(=O)N1CCC(C(=O)Nc2cccc(F)c2)CC1
 : -24 | i | -10 | -9 | -6 | -1 | -2 | -22
- N#CC1(NC(=O)CN2C(=O)NC(c3ccccc3)(c3ccccc3)C2=O)CCCC1
 : -22 | · | · | -16 | · | -5 | -1 | -4
- COc1cc(C(=O)OCC(=O)Nc2nnc(-c3ccccc3)o2)cc(OC)c1OC
 : 1 | i | · | -7 | · | 11 | -1 | ·
- CCn1c(CO)nc2c1c(=O)[nH]c(=O)n2Cc1ccccc1
 : 13 | i | -4 | -6 | -10 | 3 | 3 | -2
- CC(=O)Nc1ccc(-c2csc(NC(=O)Cc3cccc(F)c3)n2)cc1
 : 4 | i | 8 | 90* | -7 | 1 | -14 | 8
- CCCC(=O)Nc1nnc(S(=O)(=O)N(CC(C)C)c2ccccc2)s1
 : -30 | i | 0 | 14 | -1 | 3 | 5 | -10
- CCOc1cc(C2/C(=C(/O)c3ccc(OC(C)C)cc3)C(=O)C(=O)N2CCCOC)ccc1O (stereo unspecified)
 : · | i | 9 | -6 | 9 | 1 | 0 | -30
- CN(C(=O)CCn1c(=S)oc2ccccc21)C1CCCCC1
 : 21 | i | -1 | 4 | -4 | 9 | -4 | -17
- Cc1cc(C)nc(NC(=O)c2ccc([N+](=O)[O-])o2)n1
 : · | i | 4 | 5 | 9 | 3 | 1 | ·
- CCN1/C(=C/c2ccc3ccccc3[n+]2CC)C=Cc2ccccc21
 : · | i | -60 | 44 | -24 | 66 | 63 | 6
- Cc1cc(NC(=O)CC(CN(C)S(=O)(=O)c2ccccc2)c2ccccc2)no1 (stereo unspecified)
 : · | i | -6 | -12 | -5 | -4 | 1 | 2
- COCCNC(=O)C1Nc2ccc(C(F)(F)F)cc2C2C=CCC12 (stereo unspecified)
 : -1 | i | · | 13 | · | 3 | 0 | -19
- CN(CC(=O)O)S(=O)(=O)c1ccc2c(c1)NC(=O)CC(=O)N2
 : -4 | i | -12 | · | -6 | 4 | 8 | ·

(listing goes on)
The line under a structure holds: HIV Env fusion | Rce1 inhib | PABP FP inh | CSC inhib | eIF4H FP inh | MT1-MMP act inh | MT1-MMP act inh RFP | UUG fidelity
- CC(C)(C)OC(=O)N1CCCC(C(=O)Nc2ccc(C(=O)N3CCCCC3)cc2)C1 (stereo unspecified)
 : -9 | · | · | -14 | · | 9 | -5 | 16
- CC1=C(C)CS(=O)N(S(=O)(=O)c2ccccc2)C1 (stereo unspecified)
 : ? | i | 5 | 11 | -3 | -1 | 2 | -27
- CC(/C=N/NC(=O)c1ccc(Br)cc1)=C\c1ccccc1
 : -44 | i | -2 | 7 | -2 | 4 | 5 | -12
- Cc1ccc(S(=O)(=O)N2CCCC(C(=O)NCCc3ccc(Cl)cc3)C2)cc1 (stereo unspecified)
 : 0 | · | · | · | · | -15 | -17 | -6
- C=CCNCC(=O)N1N=C(c2ccc3ccccc3c2)CC1c1ccc(OC)cc1 (stereo unspecified)
 : -8 | i | -8 | 24 | 5 | -5 | -10 | ·
- Cc1occc1C(=O)NC(C)CCc1ccccc1 (stereo unspecified)
 : · | i | 3 | -12 | 3 | 5 | 4 | -6
- N#Cc1c(N2C(=O)c3ccc(C(=O)O)cc3C2=O)sc2c1CCCC2
 : -4 | i | 13 | -17 | 6 | 1 | 3 | -31
- O=C(O)c1ccc(-c2ccc(Cl)cc2Cl)o1
 : -91 | i | 12 | -4 | 10 | -2 | -2 | -13
- COc1ccc(/C=C2\SC(=O)N(CCC(=O)NC3CCS(=O)(=O)C3)C2=O)cc1 (stereo unspecified)
 : -45 | i | 5 | -20 | -4 | -1 | 3 | -25
- O=C1c2ccccc2C2(c3ccc(F)cc3)NCCN12 (stereo unspecified)
 : 0 | i | 4 | -14 | 1 | 3 | 5 | 39
